Ba CapD inh = inhibitors of Bacillus anthracis CapD enzyme. 140,000 tested, 0.23% active. purified CapD enzyme, fluorescence intensity read-out; stronger effect = lower value; some hits fall short of the stated cut. z-score (no concentration beside the values). AID 492967;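 active = z-score under -4 in either of two replicates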;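 note: stock transfer was 100 nL into about 40 µL; score is relative to mean and spread of the plate; one replicate is shown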
AID504770 = E. coli YBA685 growth inhibition, screen for V. cholerae RctB inhibitors; E. coli YBA685 rctB-dependent plasmid, OD600 growth, 3 h; stronger effect = lower value; z-score (test concentration not listed); 130,000 tested, 0.27% active; AID 504770;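 active = z-score under -2 on both plates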;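 note: wells of about 30 µL received 100 nL stock; score is relative to mean and SD of the test wells; the first replicate is given; strong numbers were not always called active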
The depositor's hits bear a star; i = inactive; nt = no result given; & = joins results of further samples. Compounds were not picked by outcome; 0.41% or so of the library scored in one or more.

SMILES	Ba CapD inh	AID504770
N#Cc1ccccc1OCCCCSc1ncccn1	0.1	-0.7
O=S(=O)(c1ccc(Cl)cc1)N1CCN(Cc2ccccc2)CC1	-0.015&-0.26	nt
CC12C=CC(C)(O1)C1C(=O)N(c3cccc(C(F)(F)F)c3)C(=O)C12 (stereo not drawn)	-0.35	nt
COC(=O)c1cc(COC(=O)C2(c3cccc(F)c3)CCCC2)oc1C	nt	0.5
OC1CN(C(c2ccccc2)c2ccccc2)C1	0.12&0.085	0.9
COc1ccccc1N1CCN(S(=O)(=O)/C=C/c2ccccc2)CC1	-0.54	1.6
COc1ccc(C)cc1NC(=O)c1c(Cl)nc2sccn12	0.14	-0.4
O=c1[nH][nH]c(=S)n1C1CCCCC1	0.47	0.2
COC(=O)C1=C(C)Nc2[nH]c(=S)[nH]c(=O)c2C1c1ccccc1 (stereo not drawn)	nt	-0.25
CCCCn1c(SCC(=O)N(C(C)C)C(C)C)nc2c1c(=O)n(C)c(=O)n2C	nt	-0.85
Cc1ccc2nc(-c3ccncc3)cc(-c3ccccc3)c2c1	2.6	-0.7
CC(=Nc1ccccc1)c1nc(-c2ccccc2)oc1O	-1.7	-0.6
O=C(NCc1ccc(Cl)c(Cl)c1)c1cccnc1OCC(F)(F)F	0.4	0.65
O=C(NNC(=O)c1cc2sccc2nc1C(F)(F)F)c1ccccc1	-0.11	nt
O=C1C=CC(=O)N1c1ccccc1Br	-0.59	-3.3*
CSc1ccc(-c2cn3ccsc3n2)cc1	-0.49	-0.45
COC(=O)C1=C(CN2CC(C)CC(C)C2)NC(=O)NC1c1ccc(OC)cc1 (stereo not drawn)	nt	-0.8
CCN(CC(=O)NCc1ccc(F)cc1)C(=O)Cc1coc2cc3c(cc12)CCC3	nt	-0.7
O=C1NC(=Nc2ccccc2O)CS1	nt	-0.45
CCC(CC)NC(=O)C1C(=O)N(C)C2(C)CC1c1ccccc1O2 (stereo not drawn)	-0.2	-0.15
CNC(=O)Oc1noc2ccc(Cl)cc12	-0.43	nt
COc1ccc(S(=O)(=O)N(CCc2ccccc2)CC(=O)N2CCN(C)CC2)cc1Cl	0.5	0.55
CCN1C(=O)c2ccccc2Sc2ccc(C(=O)NCC3CCCO3)cc21 (stereo not drawn)	0.19	1
CCN(CC)c1cc(C)c2cc(NC(=O)c3ccc(Br)o3)ccc2n1	1.6	0.4
Cc1c(C#N)c2nc3ccccc3n2c(=O)/c1=C\Nc1ccc(N2CCOCC2)c(Cl)c1	57	-0.25
CC(=O)OC1CC(C(=O)O)N(S(=O)(=O)c2ccc(C)cc2)C1 (stereo not drawn)	nt	-1.2
CC1(C)C(=O)N(Cc2ccc([N+](=O)[O-])cc2)c2ccccc2N1C(=O)c1ccc(F)cc1	-0.48	nt
O=S(=O)(c1ccccc1)c1nc(-c2cccs2)oc1NCc1ccccc1	0.14	0.5
CCN(CC)S(=O)(=O)c1ccc(NC(=O)Nc2cn(CC(C)C)c(=O)c3ccccc23)cc1	14	-0.55
O=C(Nc1ccc(C(F)(F)F)cc1)c1cc(S(=O)(=O)N2CC3CC(C2)c2cccc(=O)n2C3)ccc1F (stereo not drawn)	-0.58	nt
Nc1nnc(C(=O)c2ccccc2N)s1	0.55	-0.3
COc1ccccc1C(C#N)N1N=C(C)CC1c1ccccc1 (stereo not drawn)	-0.13	-0.35
O=C(CCCCc1cccs1)Nc1ccccc1F	0.17	-0.3
CCC(COc1nnnc2ccccc12)NS(=O)(=O)c1ccc(-n2cnnn2)cc1 (stereo not drawn)	-0.085	-1
O=c1c(F)cn(C2CCCO2)c(=O)n1Cc1ccccc1F (stereo not drawn)	0.75	0
CC(=O)C1=C(C)NC(SCc2ccccc2F)=C(C#N)[C@@H]1c1ccccc1[N+](=O)[O-]	0.12	nt
COc1ccc(Br)cc1C1C(N2C(=O)c3ccc([N+](=O)[O-])cc3C2=O)C(=O)N1c1ccc(C)cc1C (stereo not drawn)	-0.32	nt
COc1cc(C2CC(=O)C3=C(C)Nc4ccccc4N=C3C2)cc(OC)c1OC (stereo not drawn)	nt	2.5
Cc1ccn2c(NC3CCCC3)c(-c3cccnc3)nc2c1	0.37	-0.1
Nc1nc2c(c3c1c(=O)oc1ccccc13)CCCC2	nt	-0.15
Cc1ccc(-c2csc(CS(=O)(=O)C(C)(C)C)n2)cc1	11	-0.65
CCN1CC2CCCC3(C1)C(=O)NC1(CCCCC1)N=C23 (stereo not drawn)	nt	-0.15
Cc1nccn1Cc1cccc2ccccc12	0.48	0.15
CC1CCCCN1C(=O)CSC1=NS(=O)(=O)c2ccccc2N1 (stereo not drawn)	0.14	-0.15
CCOC(=O)c1c(NC(=O)CCN2C(=O)c3cccc4cccc(c34)C2=O)sc2c1CCC2	1.1	nt
CC(=O)OCCN1C(=O)c2ccc3c4c(ccc(c24)C1=O)C(=O)N(CCOC(C)=O)C3=O	0.47	nt
CN(C)S(=O)(=O)Oc1ccsc1C(=O)Nc1ccc(Cl)cc1	-0.63	nt
Cc1cc(Cl)ccc1OCCCC(=O)NC1(C)CCS(=O)(=O)C1 (stereo not drawn)	nt	-0.45
N/C(=N\OC(=O)c1ccc2c(c1)OCO2)c1ccc(Cl)cc1	-0.28	0.95
O=C1/C(=C/c2ccc(N3CCOCC3)cc2)CCc2ccccc21	11	-0.65
COC(=O)C1=CC=C(c2ccc(OC)cc2)SC1	0.69	0.15
O=S(=O)(Cc1ccccc1)N1CCCCCC1	0.64	0.4
Cc1c(C(=O)/C=C/N(C)C)nnn1-c1ccc(Cl)cc1Cl	-2	0.35
O=C(O)CCCN1CCCC1=O	nt	-0.1
C=CCN(Cc1nc(-c2ccccc2)no1)C(=O)Nc1ccccc1	0.095	-0.75
COC(=O)CNC(=O)C12CC3CC(C)(CC(C)(C3)C1)C2	0.14	-0.35
O=C(CSc1nc2c(c(=O)n1-c1ccc(F)cc1)SCC2)Nc1nccs1	-0.42	nt
COc1ccc(-n2cc(-c3ccccc3)c3c(N4CCCCC4)ncnc32)cc1	-1.3	0.45
CCOc1ccc(N=CC2=C(O)CC(c3ccco3)CC2=O)cc1 (stereo not drawn)	-0.21	1.8
CC1(C)Cc2ccccc2C(c2cc3ccccc3oc2=O)=N1	-1.7	-0.8

Random excerpt: 6 compounds from above, in no set order.
SMILES	Ba CapD inh	AID504770
CCOc1ccc(N=CC2=C(O)CC(c3ccco3)CC2=O)cc1 (stereo not drawn)	-0.21	1.8
COC(=O)CNC(=O)C12CC3CC(C)(CC(C)(C3)C1)C2	0.14	-0.35
COc1ccc(-n2cc(-c3ccccc3)c3c(N4CCCCC4)ncnc32)cc1	-1.3	0.45
CC1(C)Cc2ccccc2C(c2cc3ccccc3oc2=O)=N1	-1.7	-0.8
CC1CCCCN1C(=O)CSC1=NS(=O)(=O)c2ccccc2N1 (stereo not drawn)	0.14	-0.15
C=CCN(Cc1nc(-c2ccccc2)no1)C(=O)Nc1ccccc1	0.095	-0.75

Going on with the list.
SMILES	Ba CapD inh	AID504770
Cn1c(=O)c(Cc2ccccc2)c(OC(=O)c2ccccc2)c2ccccc21	1.6	2.1
Cc1ccc(C=C2C(=O)NC(=O)NC2=O)cc1	-0.43	-4.7*
CCOC(=O)C1=CN(Cc2ccc(OC)c(OC)c2)C=C(C(=O)OCC)C1c1ccc2c(c1)OCO2	1.6	nt
CC(C)(C)OC(=O)N1Cc2ccccc2CC1C(=O)NNC(=O)c1cccs1 (stereo not drawn)	0.67	nt
CCOC(=O)COn1c(-c2cccc(Cl)c2)nc2ccc([N+](=O)[O-])cc21	0.28	nt
CSc1scc(N)c1S(=O)(=O)C(C)C	9.1	1.4
COc1ccc(C2CC(=O)C3=C(C2)Nc2ccccc2NC3c2cccc(C(F)(F)F)c2)cc1OC (stereo not drawn)	-0.72	nt
Cc1ccc(-c2csc(NC(=O)/C=C/c3ccccc3)n2)o1	-0.15	0.95
CC(C)NC(=O)CCc1nnc2n(Cc3ccc(Cl)cc3)c(=O)c3ccccc3n12	-0.055	-0.4
CN1C(=O)C(=Cc2ccccc2Oc2ccc(Cl)cc2)C(=O)N(C)C1=O	-0.43	nt
c1ccc(N=C2c3ccccc3-c3nc4ccccc4cc32)cc1	7	nt
CCCCN(C)Cc1cccc(OC)c1OC	0.17	-0.4
COc1cc2cc(C)nc(C)c2cc1OC	64	0.6
CCOc1ccccc1CN1C(=O)c2ccccc2C1C(=O)NCCc1ccccc1 (stereo not drawn)	-0.53	-0.65
Cc1ccc(Cl)cc1NC(=O)c1ccc(NS(=O)(=O)c2cccc3cccnc23)cc1	0.055	0.1
O=C1CNC(=S)N1CCc1ccccn1	-0.41	nt
Cc1onc(NC(=O)CSCC(=O)O)c1Br	-0.67	-0.7
COc1ccc(C2CC(=O)C3=C(C2)Nc2ccccc2NC3c2ccccc2OC(C)C)cc1OC (stereo not drawn)	-0.52	nt
CSc1ncccc1C(=O)OCC(=O)Nc1ccc(NC(C)=O)cc1	nt	-1.4
Cn1c2ccccc2c2nnc(NN)nc21	-1.2	-0.95
Cc1ccccc1Nc1nc(N)nc(CSc2nc(C)c(C)n2CC(C)C)n1	nt	0.2
COc1ccc(-n2cnc3ccccc3c2=O)cc1OC	-0.35	-0.6
CCCc1nc(-c2ccccn2)[nH]c(=O)c1Cc1c(F)cccc1Cl	0.98	0.05
Cc1cc(C=C2C(=O)NC(=S)NC2=O)c(C)n1-c1ccc(-c2ccccc2)cc1	-1.6	nt
CC(C)N(C(=O)CSc1ccc(Br)cc1)c1ccccc1	-0.58	-1.2
CN(C)/C=N/c1nnc(SCC(=O)c2ccc(Cl)cc2)s1	0.61	-1.4
CC(C)(C)NC(=O)CSc1nnc(Cc2ccc3c(c2)OCO3)n1C1CCCCC1	nt	-0.75
COC(=O)c1cccc(N=Cc2cc(Br)cc(OC)c2O)c1	-0.12	nt
COc1ccc(Br)c(C(=O)/C(C#N)=N/O)c1	-0.17	-0.65
O=C(O)CSC1=NCCN1	nt	-0.65
COc1ccc(OC)c(C2Sc3ccccc3NC3=C2C(=O)c2ccccc23)c1 (stereo not drawn)	-0.27	nt
CC1=CC(=C2C(=O)c3ccccc3C2=O)C=C(C)N1CCN1CCOCC1	nt	1.1
O=C(N/C(=N/O)c1ccc(OCc2cnc(Cl)s2)cc1)c1cccs1	-0.055	nt
CCOC(=O)c1cc2c(=O)n3ccccc3nc2n(C)c1=NC(=O)c1cccc(C)c1	-0.92	nt
CN(CC(=O)Nc1ccc(-c2nnc3n2CCCCC3)cc1)S(=O)(=O)c1ccc(Cl)s1	nt	-1.9
COC(=O)C1=C(C)N=c2s/c(=C/c3ccc(OC(C)=O)c(OC)c3)c(=O)n2C1c1ccc(OC(C)=O)cc1 (stereo not drawn)	-0.33	nt
Cn1c(=NC(=O)COc2ccccc2)sc2ccccc21	i	2
O=C1Nc2ccccc2S/C1=C\C(=O)N1CCN(Cc2ccccc2)CC1	-1.1	1.1
O=C(O)C1CCN(C(=O)C2CC2)CC1	nt	-0.7
COC(=O)COc1ccccc1O	0.21	0.55

Some of the entries so far, with bars between the fields:
SMILES | Ba CapD inh | AID504770
COc1ccc(Br)c(C(=O)/C(C#N)=N/O)c1 | -0.17 | -0.65
O=C(O)CSC1=NCCN1 | nt | -0.65
COc1ccc(OC)c(C2Sc3ccccc3NC3=C2C(=O)c2ccccc23)c1 (stereo not drawn) | -0.27 | nt
CC1=CC(=C2C(=O)c3ccccc3C2=O)C=C(C)N1CCN1CCOCC1 | nt | 1.1
O=C(N/C(=N/O)c1ccc(OCc2cnc(Cl)s2)cc1)c1cccs1 | -0.055 | nt
CCOC(=O)c1cc2c(=O)n3ccccc3nc2n(C)c1=NC(=O)c1cccc(C)c1 | -0.92 | nt
CN(CC(=O)Nc1ccc(-c2nnc3n2CCCCC3)cc1)S(=O)(=O)c1ccc(Cl)s1 | nt | -1.9

New compounds follow:
SMILES	Ba CapD inh	AID504770
CSc1cccc(NC(=O)c2nnn(CC(=O)Nc3cc(C)cc(C)c3)c2N)c1	0.33	0.25
Cc1c(C(=O)NCc2cccc(Cl)c2)oc2c1-c1[nH]ncc1CC2	9.2	-0.15
O=C(OCc1ccc2nonc2c1)c1c2c(nc3ccccc13)CCC2	0.14	-0.3
CCCCNc1nc(SCC(=O)N2CCN(c3ccccc3OC)CC2)nc2ccccc12	-0.29	nt
COc1ccc(NC(=O)Cn2ncc3c([nH]c4ccccc43)c2=O)cc1	-0.26	0.95
COc1cc(C=Nc2c(C)n(C)n(-c3ccccc3)c2=O)cc(I)c1O	-0.21	nt
CC1CN(C)C(C)/C(=C\c2ccco2)C1=O (stereo not drawn)	nt	-0.75
CCCCOc1ccccc1C(=O)NCC(=O)NN	nt	-0.15
COc1cc(C#N)ccc1OCC(=O)Nc1ccc(C)cc1C	-0.095	-0.45
O=S(=O)(c1cccs1)N(Cc1ccccc1)Cc1ccccc1	-1	-0.55
O=C(NCc1ccccc1)c1ccc(-n2c(-c3ccccc3)cc3c2CCCC3)cc1	0.92	0.45
Cn1nnc(NC(=S)NC(=O)Cc2ccccc2)n1	-0.41	1
O=S(=O)(NCC1CCN(Cc2ccc(Cl)cc2)CC1)c1cnc[nH]1	-0.005	0.55
COc1ccc(CNC(=O)CC23CC4CC(CC(C4)C2)C3)cc1	-0.27	nt
CC1CCCC/C1=N/NC(=O)Cn1ccc(C(F)(F)F)n1 (stereo not drawn)	nt	-0.3
COC(=O)Cn1c(C(=O)OC)cc2c1ccn2C	nt	1.1
CS(=O)(=O)c1ccc2nnn(OCC(=O)Nc3cccc(C#N)c3)c2c1	nt	0
CN(c1ccccc1N(C)S(=O)(=O)c1ccccc1)S(=O)(=O)c1ccccc1	0.06	-0.45
C#CCn1c(=NC(=O)COc2ccccc2)sc2cc(S(N)(=O)=O)ccc21	nt	-0.7
COc1ccc(-n2ccnc2SCC(=O)Nc2nccs2)cc1	-0.77	-0.85
Cc1cnc(NC(=O)c2cn(-c3ccccc3)nc2-c2cccnc2)s1	nt	0.05
Clc1ccc(CSc2ncccn2)cc1	14	-0.8
